Assay outcomes as filed in PubChem BioAssay.
HCMV NEC inh – inhibitors of HCMV UL50-UL53 nuclear egress complex interaction. inhibition, % (test concentration not listed). hit rate 0.15% among 190,000. HTRF UL50-UL53 interaction, normalized percent inhibition;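 active = both replicates at 50% or more, plus weaker picks with an unusually low signal ratio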;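 also: stock transfer was 100 nL into about 20 µL; 0% = negative control wells and 100% = wells with untagged competitor protein; inactives centre near -12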
GIV Gai3 FP – inhibitors of GIV GBA-motif binding to rat Galpha-i3; Galpha-i3/FITC-GIV peptide fluorescence polarization, 90 min; stronger effect = lower value; scaled: aluminum fluoride 0%, vehicle 100%; percent of control (FP), % (concentration not given with the values); hit rate 0.42% among 210,000; AID 1224905;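 active = replicate mean at 85% of control or lower, very high polarization wells dropped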;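 also: wells of about 15 µL received 100 nL stock; the first replicate is given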
Target sequence (P08753 whole entry, looked up): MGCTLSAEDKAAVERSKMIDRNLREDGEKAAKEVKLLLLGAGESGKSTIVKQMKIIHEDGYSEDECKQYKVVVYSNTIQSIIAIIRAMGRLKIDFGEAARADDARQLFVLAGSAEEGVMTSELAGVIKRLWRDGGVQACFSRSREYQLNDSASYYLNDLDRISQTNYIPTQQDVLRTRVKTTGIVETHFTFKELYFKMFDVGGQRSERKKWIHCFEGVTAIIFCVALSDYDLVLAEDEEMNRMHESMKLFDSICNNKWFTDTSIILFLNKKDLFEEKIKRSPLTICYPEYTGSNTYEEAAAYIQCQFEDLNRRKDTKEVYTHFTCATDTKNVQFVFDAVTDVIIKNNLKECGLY
Sa growth inh – inhibitors of Staphylococcus aureus growth at 42 °C | relative growth, % (test concentration not listed) | S. aureus RN4220 growth, OD600, 20 h; stronger effect = lower value | hit rate 0.53% among 170,000;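 active = growth at 42 °C up to 50% and 20 or more points under that at 30 °C, or under 10% at both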;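 also: 300 nL library stock went into each well; scaled to the means of positive and negative controls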
Sa growth inh second temp – second read-out of Sa growth inh, no call of its own (marks repeat the call); relative growth, %; measured here: growth at 30 °C;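 optical density after 20 h as mean of two plates; 100% = untreated growth and lower means inhibition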
* = called active by the depositor; x = not tested or not shown; & = joins results of further samples.

SMILES	HCMV NEC inh	GIV Gai3 FP	Sa growth inh	Sa growth inh second temp
N#CC(C#N)=CNc1ccccc1C(=O)NCCCn1ccnc1	-24	108	86	76
O=C(O)CC1C(=O)NCCN1Cc1ccoc1 (configuration not stated)	14	99	x	x
COc1ccc(CCNC(=O)c2nc(SCc3ccc(C)cc3)ncc2Cl)cc1OC	-2	102	106	89
O=S(=O)(c1cccc2nonc12)N1CCCN(c2nccc(C(F)(F)F)n2)CC1	12	100	101	90
O=C(O)CN1C(=O)c2ccc(Br)cc2C1=O	-29	96	106	106
NCC1CC2CCC1C2 (configuration not stated)	-31	100	102	92
Cc1cccc(CCNC(=O)C2CCCN(c3cnccn3)C2)c1 (configuration not stated)	-10	100	87	92
O=C(c1cc(-c2cccc(O)c2)on1)N1CCCC1	-4	104	85	88
CCSc1nc(N)c(C#N)c(CC)c1C#N	3	101	86	97
Cn1c(=O)c(=O)n(C)c2cc(S(=O)(=O)CCC(=O)Nc3cccc(C(F)(F)F)c3)ccc21	-2	106	104	93
O=C(Nc1ccccc1)C1COc2ccccc2C1 (configuration not stated)	-26	98	x	x
CCC(C(=O)NCCCN1CCCC1=O)N1C(=O)CCn2nc(C)cc21 (configuration not stated)	-5	104	x	x
CC(CCC(=O)O)C1CCC2C3CCC4C[C@H](O)CCC4(C)C3CC(=O)C12C (some centres not stated)	2	x	87	89
CC(C)(C)C1CCC(C(=O)OCC(=O)Nc2ccc(C(N)=O)cc2)CC1 (configuration not stated)	11	x	98	103
COc1ccc(NC(=O)c2nc(Nc3ccccc3)c3ccccc3n2)c(OC)c1	-14	98	x	x
Cn1c(C(C#N)C(=O)c2cccs2)nc2ccccc21 (configuration not stated)	-20	x	23	10
O=C(Nc1cccc(Cl)c1Cl)c1cc(S(=O)(=O)NCCc2ccccc2)ccc1F	x	105	98	93
CCc1noc2nc(C)nc(NC3CC3)c12	-19	99	x	x
COC(=O)c1cc(NS(=O)(=O)Cc2ccccc2)cc(C(=O)OC)c1	-4	x	107	84
CN(CC(=O)Nc1ccc(C(N)=O)cc1)Cc1c(F)cccc1Cl	-8	x	115	105
COc1ccc(NCc2ccccc2-c2nnc(-c3ccccc3)o2)cc1Cl	-7	104	92	91
Fc1ccc(-c2noc(-c3ccc(N4CCN(Cc5ccc6c(c5)OCO6)CC4)nn3)n2)cc1	-26	99	x	x
CNC1(C)C2CCC(C2)C1(C)C (configuration not stated)	10&-24&6&-14	98	106	103
Cc1noc(Cn2c(=O)c3cc4c(cc3n(CC(=O)Nc3ccccc3Br)c2=O)OCO4)n1	x	107	118	95
O=C(O)CCS(=O)(=O)c1ccc2[nH]c(=O)oc2c1	-8	97	93	86
CCC(=O)Nc1ccc(-c2ccc3nncn3n2)cc1	-49	103	89	87
CCC1=C/C(=C/N(C)c2ccccc2)C(=O)S1	x	105	75	67
Cc1c(/C=N/NC(=O)CCc2ccc(S(=O)(=O)N3CCOCC3)cc2)cc(C#N)n1C	-26	x	102	93
CSc1ccc(Nc2nn(-c3ccc(OC(F)(F)F)cc3)nc2C(C)=O)cc1	-36	102	82	91
CCOc1cccc2sc(N3CCN(C(=O)c4ccco4)CC3)nc12	x	94	121	82
COc1ccc(Cl)cc1NC(=O)CSc1cn(CC(=O)N2CCCC2)c2ccccc12	x	110	106	104
CCCCCNc1cc(C)nc2c(-c3ccc(F)cc3)c(C(F)(F)F)nn12	-23	99	x	x
O=C(NCCS(=O)(=O)N1CCc2ccccc2C1)C1CC(=O)N(c2ccccc2)C1 (configuration not stated)	-14	107	x	x
O=C(Cc1cc(F)cc(F)c1)Nc1ccccn1	-10	99	106	89
CN(CC(=O)Nc1nc2ccccc2s1)S(=O)(=O)c1ccccc1	-7	103	128	105
COC(=O)c1ccc(CSc2nnc(-c3c[nH]c4ccccc34)n2C)o1	x	105	110	85
O=C(CSc1n[nH]c(=O)n1Cc1ccccc1)Nc1cc(Cl)cc(Cl)c1	-2	109	110	94
Nc1nnnn1CC(=O)OCC(=O)c1ccccc1	1	106	83	88
CCc1ccc2[nH]c(=O)c(CNC3CCCC3)cc2c1	-13	100	90	86
CN(C(=O)CSc1nc2ccc(NC(=O)c3ccc(F)cc3)cc2s1)c1ccccc1	-18	96	106	79
CCOC(=O)c1c(S(=O)(=O)N2CCc3ccccc3C2)c(C)n(C)c1C	2	103	x	x
CSc1nc(C)cc(OCCNS(=O)(=O)c2ccc(C)cc2)n1	4	105	93	93
O=C(C1CCCN(c2nc3ccccc3n3cccc23)C1)N1CCN(c2ccc(F)cc2)CC1 (configuration not stated)	-7	100	x	x
Cc1[nH]n(-c2ccccc2)c(=O)c1/C=N/O	-35	97	80	65
C#CC(C)(C)OC(=O)Nc1ccccc1	3	105	112	75
Cc1cccc(CCNC(=O)CCS(=O)(=O)c2cc3c(cc2Cl)NC(=O)CO3)c1	x	101	110	104
CC1CN(Cc2nc3c([nH]2)c(=O)[nH]c(=O)n3C)CC(C)O1 (configuration not stated)	x	101	70	86
Cc1sc(-c2cc3ccccc3oc2=O)nc1-c1ccc(Cl)cc1	x	99	104	92
C=CCn1c(Cc2ccc(OC)cc2)nnc1SC(C)C(=O)Nc1nnc(C)s1 (configuration not stated)	x	104	97	84
O=C(O)CCC(=O)c1ccc(I)cc1	22	x	90	98

Additional compounds
SMILES	HCMV NEC inh	GIV Gai3 FP	Sa growth inh	Sa growth inh second temp
O=c1[nH]c(SCCO)nc2c1cnn2CCO	-2	106	x	x
O=C(Sc1cccs1)C1COc2ccccc2O1 (configuration not stated)	-3	103	28	7
CC(C)(C)NS(=O)(=O)c1ccc(-c2nnc(SCC(=O)c3ccc(F)cc3)o2)cc1	-11	105	99	82
OC[C@H]1O[C@@H](Oc2ccccc2)[C@H](O)[C@@H](O)[C@@H]1O	-29	103	86	85
O=C(C1=C2SC=C(c3ccccc3)N2CCCC1)c1cccs1	-24	x	94	86
Cc1ccc(N(Cc2ccccc2O)C(=O)CN2C(=O)c3ccccc3S2(=O)=O)cc1	-1	96	84	93
CCOC(=O)c1ccc(Oc2nc(NC(C)C)nc(NC(C)(C)C)n2)cc1	-10	107	109	93
Cc1cc(=O)n(Cc2ccncc2)c2c1c(C)nn2C	7	113	102	99
CCn1c(CN(CCO)CCO)nc2ccccc21	-5	98	87	93
CCOc1ccc(-c2cc(NC(=O)Cn3ncc4c(=O)oc5ccccc5c43)on2)cc1	-12	96	x	x
COc1ccc(/C=C/C(=O)Nc2nc3ccc(S(C)(=O)=O)cc3s2)cc1Br	x	106	87	80
CCCCN(CC)CCCNC(=O)c1cc2c(=O)oc3ccc(C)cc3c2s1	-81	113	107	89
Cc1cn(CC(C)C)c(=O)n(CC(C)C)c1=O	8	100	89	102
CC1CC(C)(C)CC2(C1)NC(=S)N(c1nc3ccccc3s1)N2 (configuration not stated)	x	104	107	64
COc1cccc(NC(=O)c2c(-c3ccccc3Cl)noc2C)c1	-9	94	x	x
COc1ccc(/C=N/c2oc(C)c(C)c2C#N)c(OC)c1	-2	x	87	95
Nc1cccc(S(=O)(=O)c2cccc(N)c2)c1	-13	98	95	99
O=C(Nc1ccc(Br)cc1F)C1CCN(c2nc3ccccc3[nH]2)CC1	x	103	91	85
CCn1c(O)c(C=Nc2ccccc2)oc1=S	x	92	100	100
CCn1cc(C(=O)N2CCC(C)CC2)c2cc(OC)c(OC)cc2c1=O	-32	101	x	x
CCc1cccc(-n2c(C)nc3c(cnn3-c3ccc(Cl)cc3)c2=O)c1	-10	101	99	89
O=C1CCCN2C(=N1)SC(=S)N2CN1CCN(Cc2ccccc2)CC1	-34	101	83	81
CNCc1ccc(-c2cc(Cl)cc(Cl)c2)o1	-27	106	x	x
O=C(Nc1ccccc1C(=O)OCc1cc(=O)n2nc(C3CC3)sc2n1)c1ccc(Cl)cc1	x	102	94	91
CCc1ccc2c(c1)c(=O)c(S(=O)(=O)c1ccc(F)cc1)cn2CC(=O)Nc1ccccc1OC	-34	103	116	84
CCOC(=O)c1nnn(-c2nonc2-n2cccc2)c1CN1CCOCC1	-24	99	111	87
CCOC(=O)C1=C(CN2CCCCC2)NC(=O)NC1c1cc(C)ccc1C (configuration not stated)	x	101	81	92
CCC(=O)Nc1ccc2nn(-c3ccc(OC)cc3)nc2c1	-36	100	96	72
CCS(=O)(=O)c1ccc(-c2ccc(NC(=O)C3CCCCC3)cc2)nn1	0	102	x	x
Cc1ccc(NCC(F)(F)C(F)F)cc1	2	105	100	86
COc1cccc(CN(C(=O)c2ccc(C(C)(C)C)cc2)C2CCS(=O)(=O)C2)c1 (configuration not stated)	-6	102	91	85
O=C(C1CCC(CNS(=O)(=O)c2cccc3nsnc23)CC1)N1CCc2ccccc21 (configuration not stated)	-8	95	98	89
CCN(CC)C(=O)c1cc(-c2ccc(OC)cc2)on1	8	96	107	99
Cc1cc(C)c(S(=O)(=O)N2CCC(N3CCN(Cc4ccc(F)cc4)C(=O)C3=O)CC2)c(C)c1	-27	103&106	111	93
O=C(CN1C(=O)c2ccccc2S1(=O)=O)N1CCCC1	-31	x	109	92
Cc1noc(C)c1COC(=O)/C=C/c1cn(-c2ccccc2)nc1-c1ccc2c(c1)OCCO2	0	x	82	96
Cc1cc(N=Cc2c(O)n(-c3ccc4c(c3)OCO4)c(=O)c3ccccc23)ccn1	-56	x	98	77
Cn1c(N)c(S(=O)(=O)N2CCc3ccccc3C2)c(=O)n(C)c1=O	2	102	104	100
Cc1ccc(CCNC(=O)Cn2c(=O)oc3cc(S(=O)(=O)NC4CCCC4)ccc32)cc1	-15	101	99	87
CC(=O)Nc1cc(N)nnc1Cl	-1	x	103	90
CC1CC(C)CN(C(=O)CSc2nnc(C(F)(F)F)n2C)C1 (configuration not stated)	-24	x	87	88
CCOC(=O)c1n[nH]n2c1nc(=S)c1ccccc12	-11	104	89	41
COc1ccc(-c2noc(Cn3c(=O)c4ccccc4n(CC(=O)Nc4cccc(C(F)(F)F)c4)c3=O)n2)cc1	x	106	101	86
CCn1cc(C(=O)NCCCN(CC(C)C)CC(C)C)c(=O)c2cc(S(=O)(=O)N(C)C3CCCCC3)ccc21	-27	102	100	83
CC1(c2ccc(Cl)cc2Cl)NC(=O)N(CC#N)C1=O (configuration not stated)	-22	x	94	93
COc1cc(C(=O)Nc2cccc(-c3nc4ccccc4[nH]3)c2)ccc1OC(C)=O	2	106	94	49
COc1ccc(C)cc1NC(=O)C1CCN(S(=O)(=O)c2ccc3[nH]c4c(c3c2)CCCCC4)CC1	x	103	95	87
O=C(OCCOc1ccc(Br)cc1)c1cnccn1	-23	x	90	88
CCCCN1CN(CCc2cccc(Cl)c2)Cn2c1nc1ccccc12	-10	x	98	99
COc1cccc(CNC(=O)c2ccc(-c3nc(CSc4ccccc4)c(C)o3)cc2)c1	x	106	123	84
COc1ccccc1N1CCN(S(=O)(=O)c2ccc3[nH]c(=O)oc3c2)CC1	-35	104	x	x

Structural class: the entries above containing an aryl thioether with sulfur outside any ring.
SMILES	HCMV NEC inh	GIV Gai3 FP	Sa growth inh	Sa growth inh second temp
COc1ccc(CCNC(=O)c2nc(SCc3ccc(C)cc3)ncc2Cl)cc1OC	-2	102	106	89
CCSc1nc(N)c(C#N)c(CC)c1C#N	3	101	86	97
CSc1ccc(Nc2nn(-c3ccc(OC(F)(F)F)cc3)nc2C(C)=O)cc1	-36	102	82	91
COc1ccc(Cl)cc1NC(=O)CSc1cn(CC(=O)N2CCCC2)c2ccccc12	x	110	106	104
COC(=O)c1ccc(CSc2nnc(-c3c[nH]c4ccccc34)n2C)o1	x	105	110	85
O=C(CSc1n[nH]c(=O)n1Cc1ccccc1)Nc1cc(Cl)cc(Cl)c1	-2	109	110	94
CN(C(=O)CSc1nc2ccc(NC(=O)c3ccc(F)cc3)cc2s1)c1ccccc1	-18	96	106	79
CSc1nc(C)cc(OCCNS(=O)(=O)c2ccc(C)cc2)n1	4	105	93	93
C=CCn1c(Cc2ccc(OC)cc2)nnc1SC(C)C(=O)Nc1nnc(C)s1 (configuration not stated)	x	104	97	84
O=c1[nH]c(SCCO)nc2c1cnn2CCO	-2	106	x	x
CC(C)(C)NS(=O)(=O)c1ccc(-c2nnc(SCC(=O)c3ccc(F)cc3)o2)cc1	-11	105	99	82
CC1CC(C)CN(C(=O)CSc2nnc(C(F)(F)F)n2C)C1 (configuration not stated)	-24	x	87	88
COc1cccc(CNC(=O)c2ccc(-c3nc(CSc4ccccc4)c(C)o3)cc2)c1	x	106	123	84
